Screening results from PubChem.
HSD17B inh = qHTS Assay for Inhibitors of HSD17B4, hydroxysteroid (17-beta) dehydrogenase 4; AID 893, 2007; 3-hydroxyacyl-CoA dehydrogenase type-2 (Homo sapiens), Q99714; recombinant HSD17B10, NADH fluorescence kinetic; many of its hits are not listed in these tables; 75,000 tested, 7.6% active; Potency, µM (series often up to 57.1 µM), for the others: at the highest dose activity change, negative = inhibition, hits mostly inhibitors; active = well fitted inhibition curve with a large enough effect; inconclusive = small, poorly fitted or top-dose-only effect; inactive = no such curve, though single readings can be large or run the other way;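 also: the protocol describes HADH2 (HSD17B10) and not the HSD17B4 of the title; nearly all actives have a fitted effect of over 70% in size; most hits overshoot -100% by far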
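20 nM HADH2, pH 9.0 Tris/Tween; cpd preinc 15 min RT; start w/ 1 mM NAD+ + 90 uM b-hydroxybutyryl-CoA; kinetic fluor ex360/em450 q30s x 4 min; delta last-first.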
An asterisk follows results filed as active; u = inconclusive; & = joins results of further samples; [ ] = dose if it differs, or a comment. % is scaled to controls: 0 for no effect and ±100 for the full control effect; potency is read from the fitted curve at half-maximal effect. Some of the compounds tested; rates above refer to the full screens.

The first 2 compounds (preview)
| SMILES | HSD17B inh |
| --- | --- |
| O=S(=O)(NCc1ccccc1)c1ccc2c(c1)OCCO2 | 2% |
| COc1ccc(OC)c(C(=O)c2coc3ccc(O)c(CN4CCOCC4)c23)c1 | -3% |

The list itself, from the first entry:
| SMILES | HSD17B inh |
| --- | --- |
| O=S(=O)(NCc1ccccc1)c1ccc2c(c1)OCCO2 | 2% |
| COc1ccc(OC)c(C(=O)c2coc3ccc(O)c(CN4CCOCC4)c23)c1 | -3% |
| COc1ccc(-c2csc(/C(C#N)=C(\O)CSc3nccn3C)n2)cc1OC | -29% |
| COc1nc(NC(C)(C)C)nc(Oc2ccc(=O)n(-c3ccccc3)n2)n1 | 4% |
| COc1cc(C(C(=O)NC(C)(C)C)N(Cc2ccccc2)C(=O)c2cnccn2)cc(OC)c1OC (stereo not drawn) | -4% |
| Cn1c(NC(=O)c2ccco2)cc(=O)n(C)c1=O | 0% |
| CCOc1cc(C(=O)O)cc(Cl)c1OCC#N | 2% |
| O=C1NCCCc2c1oc1ccc(O)cc21 | -1% |
| CC(=O)OC1C=C[C@]2(C)C(CC(OC(C)=O)[C@@]3(C)C4=CC(=O)OC(c5ccoc5)[C@]4(C)CCC23)C1(C)C (stereo partly drawn) | 2% |
| CCC(=O)NCCC(c1ccco1)c1ccccc1OC (stereo not drawn) | 6% |
| CC(O)CNc1ncnc2nc[nH]c12 (stereo not drawn) | 21% |
| C=C(C)CN(CC#N)CC(=C)C | 18%[11.4 µM] |
| CCC1=C(OC(=O)N(CC)CC)N2C(=O)OC(=NCC3CC3)[C@]2(C)[C@H]2C1=CC[C@H]1C(=O)N(CC)C(=O)[C@H]12 | u |
| CCOC(=O)c1nnn(-c2nonc2N)c1CN(CC)CC | 6% |
| O=C(c1cccc(Cl)c1)N1CCN(C(=O)c2ccco2)CC1 | 7% |
| C=CC(=O)OCCCC | -2% |
| CN(C)CC(C)(C)CNC(=O)C1CCN(Cc2ccccc2O)CC1 | 8% |
| Cc1ccccc1-c1nc(CN2CCCC(C(=O)NCCCN3CCOCC3)C2)c(C)o1 (stereo not drawn) | -5% |
| COc1ccc(CC(=O)n2nc(-c3cccnc3)nc2N)cc1 | -10% |
| O=C(Nc1cccnc1)c1cnn2c(C(F)F)cc(C3CC3)nc12 | -6% |
| CN1[C@H](CC(=O)c2ccccc2)CCC[C@H]1C[C@@H](O)c1ccccc1 | 10% |
| COc1ccc(/C(O)=C2/C(=O)C(=O)N(CCN3CCOCC3)C2c2ccc(C)cc2)cc1 (stereo not drawn) | -4% |
| CCOc1cc(C)nc(NCCc2ccc(OC)c(OC)c2)n1 | -3% |
| COc1ccc(C#CC2C=CC(OC(C)=O)C(COC(C)=O)O2)cc1 (stereo not drawn) | 4%&-3%[11.4 µM] |
| CCOc1ccc(C(=O)NCc2cccnc2)cc1 | -6% |
| CCCn1c(N)c(C(=O)CN2CCN(S(=O)(=O)c3cccs3)CC2)c(=O)[nH]c1=O | -1% |
| Cc1ccc(Cn2c(C)nc3c(c2=O)c2nc4ccccc4nc2n3Cc2ccco2)cc1 | 25µM* |
| COCCn1nnnc1C(C(C)C)N1CCN(C(=O)c2ccco2)CC1 (stereo not drawn) | 7% |
| COc1ccc(CC(=O)Nc2ccc(-c3noc(-c4cc(OC)c(OC)c(OC)c4)n3)cc2)cc1 | 32µM* |
| COc1ccc2cnn(CCOc3ccccc3)c(=O)c2c1OC | u |
| Cc1ccnc2nc(C(=O)OCCOc3ccccc3)nn12 | 7% |
| N#CC1=C(N)NC(SCC(=O)Nc2ccccc2)=C(C#N)C12CCCC2 | -8% |
| O=C(CN(Cc1ccccc1Cl)C(=O)c1ccc(CN2CCOCC2)o1)NCc1ccccc1 | 4% |
| NC(=O)C1(N2CCCCC2)CCN(C(=O)CCCn2c(=O)[nH]c3ccsc3c2=O)CC1 | 4% |
| COc1ccc2c(C(=O)CN(C)C3CCCCC3)c[nH]c2c1 | -25% |
| CCCCC(CC)COC(=O)C(C#N)=C(c1ccccc1)c1ccccc1 (stereo not drawn) | -7% |
| CCOc1ccccc1C1CC(=O)Nc2cc3c(cc21)OCO3 (stereo not drawn) | -3% |
| CCN1CCN(P2(=O)C=C(c3ccccc3)OC(c3ccccc3)=C2)CC1 | -7% |
| O=C1NC(=O)C(CC(=O)N(Cc2ccco2)C2(C(=O)NC3CCCCC3)CCCCC2)N1 (stereo not drawn) | 5% |
| Cc1cc2ncn(C(=O)c3c(-c4ccccc4Cl)noc3C)c2cc1C | 1% |
| O=C(NC(=Nc1ccccc1)N1CCOCC1)Nc1ccccc1 | 5% |
| COc1ccc2c(c1)S/C(=C\C(=O)c1ccncc1)N2C | -20% |
| COc1ccc(-n2c(-c3ccco3)n[nH]c2=S)cc1 | 25µM* |
| Cc1ccc(C)c2[nH]c(=O)c(CCNC(=O)c3cc4ccccc4o3)cc12 | -18% |
| c1ccc2c(c1)CNc1ccccc1C2 | 8% |
| COc1ccccc1OCC(O)Cn1c(Br)nc2c1c(=O)[nH]c(=O)n2C (stereo not drawn) | 2% |
| CC(=O)/C(C(=N)N1CCN(Cc2ccccc2)CC1)=C(\C)O | 5% |
| CC1CCN(C(=O)Cn2cc3c(n2)CCCC3)CC1 | 13% |
| CCN(CCCNC(=O)CN1C(=O)COc2ccccc21)c1cccc(C)c1 | 1% |
| C=CCNC(=O)NC(=O)COC(=O)COc1ccc(Br)cc1F | 2% |
| Cc1nnc(SCCN2CCOCC2)n1C | 2% |
| Cc1ccc(NC(=O)COc2ccc(/C(N)=N/O)cc2)cc1C | -1% |
| O=C(O)C(Cc1ccccc1)Cc1ccccc1 | 7%[11.4 µM] |
| CCOc1cc(OCC)c(C(C)=O)cc1OCC | 0% |
| COc1ccccc1N1CCN(CCCCN2C(=O)CCC2=O)CC1 | -5% |
| COC(=O)c1ccccc1NC(=O)CSc1nc(NC(=O)c2ccccc2)c2c(C)c(C)oc2n1 | 16µM* |
| Cc1cc(NC(=O)CCC(=O)N(CC2CCCO2)C(C(=O)NC2CCCC2)c2ccccc2C)no1 (stereo not drawn) | 15% |
| CCC(c1nnnn1Cc1ccccc1)N(Cc1cc2cc(OC)ccc2[nH]c1=O)CC1CCCO1 (stereo not drawn) | -15% |
| O=C(NC1CCCCC1)C(c1ccccc1F)N(Cc1ccco1)C(=O)Cn1nnc2ccccc21 (stereo not drawn) | -6% |
| Cc1cc(C)nc(N2CCC(C(=O)NC3CCCCCC3)CC2)n1 | 3% |

Additional compounds.
| SMILES | HSD17B inh |
| --- | --- |
| O=C(/C(=N/O)c1ccccc1)c1ccccc1 | 7% |
| CSc1ccc(S(=O)(=O)N2CCCC2)cc1 | 5% |
| C=CCn1c(SCC(=O)Nc2cccc(OC)c2)nnc1-c1cccnc1 | 13% |
| Cc1cc2ncn(-c3nnnn3-c3ccccc3)c2cc1C | 4% |
| Cc1sc2nc(SCC(=O)N3CCOCC3)[nH]c(=O)c2c1C | 0% |
| COC(=O)[C@@]1(Cc2ccc(OC)cc2)[C@H]2c3cc(C(=O)N4CCCC4)n(Cc4ccc(C(F)(F)F)nc4)c3C[C@H]2CN1C(=O)c1ccccc1 | 6% |
| Cc1cc(=O)oc2cc(OCC(=O)OCc3nnc(-c4ccccc4)o3)ccc12 | 25µM* |
| O=C1C2CC=CCC2C(=O)N1c1nc2n(n1)C(c1ccccc1)CC(c1ccccc1)N2 (stereo not drawn) | 2% |
| COc1ccccc1N1CCN(C(=O)C2CCN(S(=O)(=O)c3ccc(Cl)cc3)CC2)CC1 | -5% |
| O=C(CCn1c(=S)[nH]c2cc3c(cc2c1=O)OCO3)N1CCN(c2ccccn2)CC1 | 9% |
| Cn1nnc(NC(=O)c2cccc(OCc3ccccc3)c2)n1 | -1% |
| Cn1nc(C(=O)Nc2c(-c3ccccc3)nc3sccn23)c2ccccc2c1=O | 0% |

Looked up by compound from the entries so far, three records:
| SMILES | HSD17B inh |
| --- | --- |
| COc1ccc(C#CC2C=CC(OC(C)=O)C(COC(C)=O)O2)cc1 (stereo not drawn) | 4%&-3%[11.4 µM] |
| Cn1nnc(NC(=O)c2cccc(OCc3ccccc3)c2)n1 | -1% |
| C=CCNC(=O)NC(=O)COC(=O)COc1ccc(Br)cc1F | 2% |

As entered above.
Result for COc1ccc(-n2c(-c3ccco3)n[nH]c2=S)cc1 in HSD17B inh: 25µM*
Result for COc1ccccc1OCC(O)Cn1c(Br)nc2c1c(=O)[nH]c(=O)n2C (stereo not drawn) in HSD17B inh: 2%
Result for COc1ccc2c(c1)S/C(=C\C(=O)c1ccncc1)N2C in HSD17B inh: -20%
Result for O=C(CN(Cc1ccccc1Cl)C(=O)c1ccc(CN2CCOCC2)o1)NCc1ccccc1 in HSD17B inh: 4%

New compounds follow.
| SMILES | HSD17B inh |
| --- | --- |
| O=C(CSc1ncn[nH]1)c1ccccc1 | u |
| CC(C)(C)C(=O)Nc1ccccc1N1CCN(C(=O)c2ccc(Cl)cc2)CC1 | 13% |
| CC(=O)N[C@H](c1ccccc1)[C@@]1(C)C[C@@H]1[C@@H](C)C(=O)Nc1ccc2ccccc2c1 | -4% |
| CCOc1ccc2c(C)c(C(=O)O)oc2c1OCC | 32µM* |
| Cc1ccc(CNC(=O)Nc2ccccc2)cc1 | 1% |
| CCc1ccc(S(=O)(=O)NCc2csc(-c3cccnc3)n2)s1 | -27% |
| CCOc1ccc(-n2c(=O)c3c4c(sc3n(CC(=O)NCc3ccco3)c2=O)CCC4)cc1 | -1% |
| COc1ccc(-c2nnc(SC3CCOC3=O)n2C2CCCCC2)cc1OC (stereo not drawn) | 6% |
| COc1ccc(NC(=O)C2CCCN2C(=O)NCc2ccccc2)c(OC)c1 (stereo not drawn) | 5% |
| CCn1c(-c2ccccc2O)n[nH]c1=S | -11% |
| Fc1ccc2nc(Nc3nc4c(s3)CCCC4)sc2c1 | 25µM* |
| CCOC(=O)c1ccc(NC(=O)CSc2nc(SC)ns2)cc1 | -13% |
| COc1ccc(S(=O)(=O)NC(CC(=O)NCCc2ccc(OC)c(OC)c2)c2ccco2)cc1 (stereo not drawn) | 0% |
| COC(=O)c1cc(NC(=O)CSc2nnc(CN3CCOCC3)n2C)ccc1Cl | u |
| O=C(O)/C=C\C=C/c1ccc2c(c1)OCO2 | u |
| CCCCn1c(NCCC)nc2c1c(=O)[nH]c(=O)n2C | 1% |
| CC(C)COc1ccc(C(=O)CCN2CCCCC2)cc1 | -6% |
| COc1ccc(NC(=O)CSc2nnc(COc3ccccc3)n2Cc2ccco2)cc1OC | -14% |
| CCC(C)N1CC23C=CC(O2)C(C(=O)OC)C3C1=O (stereo not drawn) | 3% |
| Cc1c(NC2=C(Cl)C(=O)N(c3ccccc3)C2=O)c(=O)n(-c2ccccc2)n1C | -9% |
| CO[C@@H]1COC(=O)[C@H](Cc2ccccc2)NC(=O)C/C=C\[C@@H](C)[C@H](OC)COC(=O)[C@@H](C)NC(=O)C/C=C\[C@H]1C | 0%&5%[11.4 µM] |
| Cc1cc(NS(=O)(=O)c2ccc(NC(=O)COc3ccc(Cl)cc3)cc2)no1 | 16% |
| O=C(CN(C1CCCCC1)S(=O)(=O)c1ccc(Cl)cc1)NCCCO | -4% |
| O=C1CC(c2ccccc2)n2ncnc2N1 (stereo not drawn) | 3% |
| COC(C)(C)[C@]12CC(O)(C(C)C)ON1[C@H]1CCCCC1N2O (stereo partly drawn) | 8% |
| O=C(CSc1nnc(-c2ccc(OC(F)F)cc2)o1)NC(=O)NCc1ccco1 | 32µM* |
| COCCNC(=O)CN(C(=O)CCC(=O)Nc1cc(C)on1)c1cccc(C)c1C | 7% |
| CCOC(=O)C1=CC(OC(CC)CC)C(NC(C)=O)C(N)C1 (stereo not drawn) | -4% |
| Cc1ccc(Cl)cc1N1CCN(C(=O)CCS(=O)(=O)c2cccc3nonc23)CC1 | -14% |
| COc1cc2nc(NC(=O)c3ccc(Cl)cc3)[nH]c(=O)c2cc1OC | -15% |
| CCCCC(OC(=O)c1cc2occc2n1C)C(=O)NCC1CCCO1 (stereo not drawn) | 2% |
| CCOC(=O)c1cnc(SCC(=O)NCc2ccco2)nc1N | -7% |
| O=C(Nc1ccc(Cl)c(Cl)c1)N1CCC(N2CCCCC2)CC1 | 14% |
| Cc1cc(C)cc(N2CCCn3c2nc2c3c(=O)n(CCN3CCOCC3)c(=O)n2C)c1 | 2% |
| CC(=O)N1CN(Cc2ccccn2)Cc2c1sc1c2CCCC1 | 6% |
| CCOc1ccc(NC(=O)CCN2CCCCC2)cc1 | 0% |
| O=C(Nc1cccc2ccccc12)c1cnccn1 | -9% |
| CN(C)Cc1ccccc1-c1nccc(NC2CC2)n1 | -5% |
| CC12CN3CCN(CC(C3)C1(O)CN1CCCCC1)C2 (stereo not drawn) | 2% |
| C=C(C)C1CCC(C)=C1COC(=O)Nc1ccccc1 (stereo not drawn) | -2% |
| CCOC(=O)c1cc(NC(=O)C2CCCO2)cc(C(=O)OCC)c1 (stereo not drawn) | 2% |
| COc1ccccc1S(=O)(=O)Cc1ccc(C(=O)NCc2cccs2)o1 | -13% |
| CCCNC(=O)NC(=O)CN1C(=O)NC(C)(c2ccc(C)cc2)C1=O (stereo not drawn) | 6% |
| CN1CCCC(OC(=O)CCCC(=O)OC2CCCN(C)C2)C1 (stereo not drawn) | 3% |
| CC(=O)N1CCc2cc(S(=O)(=O)CCC(=O)Nc3c(C)n(C)n(-c4ccccc4)c3=O)ccc21 | -3% |
| COC(=O)c1ccc(C(NC(=O)OCc2ccccc2)/C(F)=C/[C@@H](C)C(=O)NCc2cccnc2)cc1 (stereo partly drawn) | -3% |
| Nc1ccc(S(=O)(=O)Nc2ccc(S(N)(=O)=O)cc2)cc1 | 7% |
| COc1ccc(Nc2nc3c(c(=O)n(C)c(=O)n3C)n2CCO)cc1 | 2% |
| COc1ccc(OC)c(NC(=O)Nc2nnc(N3CCC(C)CC3)s2)c1 | -9% |
